gsp antag = antagonizes gsp, the McCune-Albright syndrome mutation; gsp-mutant cells, cAMP HTRF, 30 min; control for the full effect not named in the record; Potency, µM (series often up to 76.9 µM), for the others: at the highest dose activity change, negative = inhibition, usual class: inhibitors; hit rate 0.4% among 340,000; AID 624288; active = falling curve of any shape with a large fitted effect; inconclusive = falling curve, mostly with a smaller effect; inactive = flat or rising curve; cell line not stated here;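 further: intracellular cAMP measured with PDE inhibitor Ro 20-1724 present during compound exposure; potency means the concentration at half of the fitted maximal effect; on the % scale 0 is the no-effect control and ±100 the full control effect; nearly all actives have a fitted effect of over 65% in size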
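HTRF cAMP read-out (cAMP-d2 plus anti-cAMP antibody-K in lysis buffer, 30 min RT). Before lysis, cells are exposed to compounds with […] for 30 min at 37C in DPBS containing Ca/Mg, BSA and Tween 20.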
PINK1 expr mod = PINK1 expression modulation | hit rate 0.2% among 410,000 | Potency, µM (highest dose often 76.6 µM), for the others: top-dose activation (PINK1 increase), usual class: activators | AID 624263 | PINK1 immunofluorescence, high-content cytometry, 24 h; active = well fitted activation curve with a large enough effect; inconclusive = small, poorly fitted or top-dose-only effect; inactive = flat fitted curve, though single readings scatter; cell line not stated here;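 further: potency means the concentration at half of the fitted maximal effect; % of control where 0% means no effect; nearly all actives have a fitted effect of over 65% in size; a mitochondrial uncoupler was the plate control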
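Decision-based qHTS: stable cells, 24 h exposure to five compound concentrations, CCCP as control. Fixed cells stained for PINK1 plus nuclear, mitochondrial and cell markers, cytometer read.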
ClpP mod = qHTS Assay for Activators of ClpP; purified B. subtilis ClpP, FRET peptide cleavage, 20 min; Potency, µM (doses to about 57.5 µM), inactives show at the top dose activity change, negative = active; hit rate 1.9% among 340,000; AID 651965, 2013; active = well fitted falling curve with a large enough effect; inconclusive = small, poorly fitted or top-dose-only effect; inactive = no such curve, though single readings can be large or run the other way; further: potency means the concentration at half of the fitted maximal effect; the source files actives as falling curves though it sought activators and does not explain the sign; nearly all actives have a fitted effect of over 65% in size; many hits overshoot -100%
Target sequence (P80244 whole entry, looked up): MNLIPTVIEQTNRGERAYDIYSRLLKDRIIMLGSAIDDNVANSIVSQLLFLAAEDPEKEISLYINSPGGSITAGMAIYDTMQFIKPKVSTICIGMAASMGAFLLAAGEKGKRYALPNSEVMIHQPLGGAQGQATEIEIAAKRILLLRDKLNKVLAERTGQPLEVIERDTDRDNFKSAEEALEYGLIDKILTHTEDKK
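ClpP 10 microg/mL final, pH 8 Tris/KCl buffer with BSA, glycerol, Tween-20; compound pinned in; FRET-FV substrate; RT 20 min; Ex320/Em430; ΔFRET vs ADEP 5.8 microM, DMSO, no enzyme.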
Sfp inh = blocks B. subtilis Sfp PPTase activity | Potency, µM, inactives show max response, negative = inhibition, most hits filed as inhibitors | Q9F4F7 | Biochemical Sfp PPTase activity, qHTS | AID 1490 | hit rate 3.5% among 310,000; active means well fitted inhibition curve with a large enough effect; inconclusive means small, poorly fitted or top-dose-only effect, or another doubt; inactive means no such curve, though single readings can be large or run the other way;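 further: the enzyme is Sfp with the accession as filed and its product quenches rhodamine fluorescence; potency means the concentration at half of the fitted maximal effect; 0% = enzyme reaction without inhibitor and -100% = no enzyme wells; top concentration of the series not given in the record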
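Fluorescence-quenching assay: 15 nM Sfp-PPTase preincubated 15 min at room temperature with compound, then 5 uM rhodamine-CoA and 12.5 uM BHQ-2-labelled YbbR peptide added. Fluorescence (ex 525/em 598 nm) read at start and after 30 min; difference gives rate.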
Menin MLL FP FL = menin-MLL binding inhibition, fluorescein peptide; Fluorescence polarization, fluorescein-MLL peptide displacement from menin; AID 1766; 290,000 tested, under 10 active; FP activity change, % at 61.4 µM; inconclusive = falling polarisation curve, or a change in total fluorescence; inactive = total fluorescence flat and polarisation flat or rising; no compound was filed as active; the % refers to the polarisation; negative = inhibition;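 further: % of control where 0% means no effect; inhibitors lower the polarisation; unlabelled MLL peptide was the positive control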
gsp agonist = gsp mutant agonism; gsp mutant cells, cAMP HTRF, 30 min; control for the full effect not named in the record; Potency, µM (highest dose often 76.9 µM), without a hit: at the highest dose activation (cAMP increase), usual class: activators; hit rate 0.13% among 340,000; AID 624287; active = well fitted activation curve with a large enough effect; inconclusive = small, poorly fitted or top-dose-only effect, or another doubt; inactive = no such curve, though single readings can be large or run the other way; cell line not stated here;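 further: phosphodiesterase inhibitor Ro 20-1724 added with compounds to block cAMP breakdown; potency means the concentration at half of the fitted maximal effect; nearly all actives have a fitted effect of over 60% in size; about a fifth of the inactives were tested at one dose only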
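Cells stably selected in G418 were plated at 2000/well, grown 16-24 hr, then given compounds in DMSO with the PDE inhibitor […] (300 uM solution added) for 30 min at 37C; cAMP was read by HTRF.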
D2 ag = activates the human D2 dopamine receptor; P14416; DiscoveRx PathHunter D2 beta-arrestin, luminescence, 90 min; 100% = 57 uM dopamine signal; activation, % (concentration not given with the values); hit rate 0.084% among 360,000; AID 624465; in the data active = activation above about 40%; inconclusive = about 15% to 40%; inactive = below about 15%; further: compound concentration not given in the record; the text of the record calls up to 30% inactive
Target sequence (P14416 whole entry, looked up): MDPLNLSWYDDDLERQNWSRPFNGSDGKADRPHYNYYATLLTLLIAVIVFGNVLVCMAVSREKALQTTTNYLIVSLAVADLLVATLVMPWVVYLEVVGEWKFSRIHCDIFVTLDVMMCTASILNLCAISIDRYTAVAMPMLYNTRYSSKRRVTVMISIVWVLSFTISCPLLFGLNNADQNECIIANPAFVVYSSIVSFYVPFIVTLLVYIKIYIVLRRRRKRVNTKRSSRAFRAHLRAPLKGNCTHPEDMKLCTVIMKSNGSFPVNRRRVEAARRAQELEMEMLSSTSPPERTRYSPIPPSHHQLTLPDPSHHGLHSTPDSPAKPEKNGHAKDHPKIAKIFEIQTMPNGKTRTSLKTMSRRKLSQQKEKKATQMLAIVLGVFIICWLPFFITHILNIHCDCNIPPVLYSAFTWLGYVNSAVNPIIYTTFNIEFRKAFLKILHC
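DiscoveRx PathHunter D2 beta-arrestin cells (2,100/well) attached overnight, then compound-stimulated 90 min at 37 C in HBSS/10 mM HEPES/0.1% Tween-20 buffer; beta-galactosidase complementation read by luminescence after 1 h at ambient temperature. Dopamine 57 uM final (EC100) as control.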
Starred values were filed as active, the others as inactive; ? = inconclusive; nt = no result given; [ ] = another dose, or the depositor's remark.

SMILES | gsp antag | PINK1 expr mod | ClpP mod | Sfp inh | Menin MLL FP FL | gsp agonist | D2 ag
CCN(CC)C(=O)C1CCN(Cc2cn(C)nc2-c2ccc(Oc3ccccc3)cc2)CC1 | 7% | 1.3% | 0.2% | -11% | -0.9 | -13% | -2.2
O=C(CC(Cc1ccccc1)C(=O)O)NCCc1ccc2c(c1)OCO2 (configuration not stated) | 11% | -2.2% | -0.7% | 11% | 2.5 | -53%[inhibitor] | 1.3
COc1ccc(CCN(C)CCC(=O)Nc2cccc(C)c2)cc1OC | 10% | 0.4% | -1.7% | 9% | -2.2 | 12% | -1.3
O=C(Nc1ccc(Cl)cn1)c1ccc(-c2cc(Cl)ccc2Cl)o1 | -17% | 5.2% | -0.2% | 13% | 1.7 | -3%[15.4 µM] | -2.8
Cc1ccc(Nc2cc(C)nn2-c2nc(C)cc(C)n2)cc1 | -6% | -0.7% | 1.5% | 0% | 0.1 | 0% | -1.7
O=[N+]([O-])c1cn(Cc2ccccc2)cn1 | -6% | -0.2% | 1.0% | -22% | 5.1 | ? | -4.1
Cc1cc(C)cc(C(=O)NCC(=O)OCC(=O)NCC(F)(F)F)c1 | 8% | 1.9% | nt | 25% | 0.2 | 4%[15.4 µM] | -3.1
Cc1ccc(C(=O)OCC(=O)Nc2cc(C(C)(C)C)nn2-c2ccccc2)c(O)c1 | -9% | ? | -4.4% | nt | nt | -17% | 0.0
C/C=C/C1=CC(=O)C[C@H](c2ccc3c(c2)OCO3)C1 | -4% | -0.2% | -0.5% | nt | nt | nt | -1.2
Cc1ccc(OCC(=O)OC(C)C(=O)NC2CCCCC2C)cc1C (configuration not stated) | -15% | 2.7% | -3.2% | nt | nt | ? | 7.0
Cn1c(SCC(=O)N2CCCCC2)nc2cccnc21 | 3% | -0.4% | -1.3% | 14% | 4.2 | -4% | -2.6
COc1ccc(N2CCN(Cc3nc4sc(C)c(C)c4c(=O)[nH]3)CC2)cc1 | -15% | 0.8% | 0.6% | -4% | -1.6 | 4%[15.4 µM] | 3.1
O=C(Nc1ccnn1C1CCN(Cc2ccc(CO)o2)CC1)c1cccc(F)c1 | nt | -1.4% | -5.2% | nt | nt | -65%[inhibitor] | -2.4
COCCNC(=O)C(c1ccc(C)o1)N(CCOC)C(=O)Cn1nnc2ccccc21 (configuration not stated) | 2% | 0.0% | -1.3% | 14% | -0.7 | ? | -4.8
CCC1C(=O)n2nc(-c3ccccc3)cc2N=C1C (configuration not stated) | -1% | nt | ? | -3% | 5.5 | 12% | -2.6
O=C(Nc1cccc(Br)c1)c1cc(=O)c2ccccc2o1 | 6% | 0.3% | -18% | 14% | 4.5 | 10% | -0.5
CCCS(=O)(=O)NC(=O)C1(C)CCN(C(=O)c2ccc(C#N)cc2)C1 (configuration not stated) | nt | 1.3% | -2.6% | nt | nt | nt | 1.5
COC(=O)C(C)Sc1ccc2nnc(CCNS(=O)(=O)c3ccccc3)n2n1 (configuration not stated) | -1% | 1.0% | -18% | 4% | 0.8 | -46% | 5.8
COc1ccc(-c2ccnc3ncnn23)cc1 | 9% | 3.1% | nt | 18% | 0.4 | -18%[15.4 µM] | -2.2
Cc1cccc(NC(=O)COC(=O)CCc2ccc(S(=O)(=O)N3CCOCC3)cc2)c1C | -1% | -0.3% | nt | 11% | 5.7 | 13%[15.4 µM] | 0.7
O=C1c2ccccc2NC(c2cc(Cl)cc(Cl)c2O)N1Cc1cccnc1 (configuration not stated) | -4% | 6.8% | nt | -3% | 5.8 | 19% | 1.7
COc1ccc(NC(=O)CSc2ccc3nnc(-c4cccnc4)n3n2)cc1 | 13% | 1.0% | 0.1% | 7% | -3.2 | ? | -1.8
O=C(Nc1ccc([N+](=O)[O-])cc1)Nc1nc(-c2ccc(Cl)s2)cs1 | ? | -1.3% | -1.1% | ? | -0.3 | -10% | -0.3
O=c1[nH]c(=S)[nH]cc1Oc1ccc(Cl)cc1Cl | 11% | 1.4% | 2.8% | 29% | 5.1 | 6.3µM* | -11
Cc1ccc(S(=O)(=O)NC(=O)C2(C)CCN2C(=O)C2(c3ccc(Cl)cc3)CC2)nc1 (configuration not stated) | nt | -0.6% | -0.7% | nt | nt | nt | 1.3
CNc1nc(-c2ccc3c(c2)OCO3)nc2ccccc12 | nt | 0.7% | nt | 0% | -6.1 | nt | nt
Cc1ccc(C(=O)Nc2ccc(C(=O)N3CCCCC3)cc2)cc1 | -3% | 0.6% | -2.5% | 4% | -0.4 | 1% | -1.5
CCc1noc(C)c1C(=O)N1CC(C)SC1=Nc1ccc(Cl)cc1 (configuration not stated) | -17% | 0.5% | -1.5% | nt | nt | -1% | -0.5
CCN(CC)Cc1c(O)c(Cl)cc2c(C)c(C)c(=O)oc12 | 1% | 8.8%[38.3 µM] | -2.6% | 14% | 3.0 | ? | -0.6
CCCc1cc(-c2n[nH]c(=S)n2Cc2ccccc2)cs1 | -7% | 3.0%[38.3 µM] | -19% | -4% | -0.1 | 21% | -2.6
COc1ccc(CCNC(=O)COC(=O)c2cc(=O)c3ccccc3o2)cc1 | 1% | 0.0% | 3.3% | nt | nt | -33%[inhibitor] | 1.6
CC(=O)Nc1ccc(NC(=O)COC(=O)c2n[nH]c3ccccc23)cc1 | 7% | 1.6% | -2.4% | 18% | 3.1 | 20% | -1.6
CCOC(=O)Cn1nnnc1CN1CCN(c2ccc(OC)cc2)CC1 | 3% | 3.3% | nt | 6% | -0.9 | -3% | -2.8
CC1(C(=O)NS(=O)(=O)c2ccc(F)cc2F)CCN1C(=O)c1ccco1 (configuration not stated) | nt | 2.4% | 1.1% | nt | nt | nt | -3.9
Cc1cc(C)nc(/N=C(\N)Nc2ccc3c(c2)OCCO3)n1 | ? | 11% | 0.5% | -6% | -0.8 | -16% | -2.5
Cc1ccccc1C(=O)OC(C)C(=O)NCc1ccc2c(c1)OCO2 (configuration not stated) | 6% | -1.0% | -0.4% | nt | nt | -10% | 2.0
CN(CC(=O)O)S(=O)(=O)c1ccc2[nH]c(=O)c(=O)[nH]c2c1 | 8% | 1.9% | 4.0% | 3% | 4.8 | -8% | -1.7
O=C(NCc1ccccn1)C(=O)Nc1ccccc1 | 3% | 0.0% | nt | 4% | 0.8 | 11%[15.4 µM] | -2.4
CN(C)C(CNC(=O)c1cccc(S(=O)(=O)Nc2ccccc2Cl)c1)c1ccco1 (configuration not stated) | -10% | 2.4% | -1.9% | nt | nt | ? | -0.5
O=[N+]([O-])c1ccc(S(=O)(=O)N2CCN(Cc3ccco3)CC2)cc1 | 1% | -2.5% | nt | 56µM* | 1.6 | ? | -4.0
CC(/C=N/NC(=O)COc1ccccc1C)=N\NC(=O)COc1ccccc1C | 15% | 5.0% | 0.4% | 26% | nt | 29% | -1.1
COc1ccc(Cc2nnc(SCC(=O)N3CCCCC3)o2)cc1 | -19% | -1.3% | -0.6% | -11% | -5.9 | -27% | 0.5
CCOc1ccccc1NC(=O)C1CCCN(S(=O)(=O)c2ccc(-n3cnnn3)cc2)C1 (configuration not stated) | 2% | 0.9% | nt | 19% | nt | 0%[15.4 µM] | -0.8
C=CCn1c(SCC(N)=O)nnc1-c1cc2c(s1)CCC(CC)C2 (configuration not stated) | 4% | 0.0% | 2.8% | -7% | 1.7 | 0% | -0.7
COc1cc2c(cc1NC(=S)Nc1ccccc1C)oc1ccccc12 | -15% | 3.1% | -1.1% | -2% | 3.2 | -2%[15.4 µM] | -3.6
C1CCN(Cc2nnnn2CC2CCCO2)CC1 (configuration not stated) | 6% | -0.9% | nt | -2% | -0.5 | ? | 4.0
CCCC(C(=O)NCc1ccccc1)N(C(=O)Cn1nnc(-c2cccs2)n1)c1ccc2c(c1)OCCO2 (configuration not stated) | 2% | -1.1% | -3.0% | 15% | 11 | 16% | -1.7
COc1ccc(C(=O)CSc2ccc3nnc(-c4cccnc4)n3n2)cc1 | -10% | 6.2% | nt | 4% | 0.7 | 20µM* | 2.2
O=C(CCOc1ccc(F)cc1)Nc1nccs1 | 1% | 0.1% | nt | -2% | 8.5 | 3% | 6.8
CCCCc1ccc(NC(=O)c2c(C)noc2C)cc1 | -12% | 2.6% | -2.3% | 8% | 1.6 | -2% | -0.6
O=C1CCCc2c1[nH]c1ccc(CN3CCCCC3)cc21 | 3% | 0.2%[38.3 µM] | 28µM* | 8% | -0.9 | ? | -1.1
CCN(c1ccc2c(c1)OCO2)S(=O)(=O)c1cc(Br)cc2c1N(C(C)=O)CC2 | -17% | 16%[38.3 µM] | 0.5% | -19% | 2.5 | -4% | 1.3
NCCCCc1ccc2ccc3cccc4ccc1c2c34 | 11% | -2.5% | nt | nt | nt | 24%[15.4 µM] | -3.2
N#Cc1cccc(Oc2ccc(S(=O)(=O)N3CCCC3)cn2)c1 | 10% | 1.1% | -1.0% | nt | nt | ? | -2.3
Cc1cccc(C#CC2=CC(=O)CC(C)(C)C2)c1 | nt | 10% | 0.0% | nt | nt | 6% | 2.3
CC(C)N1CCN(Cc2ccc(C#CC(C)(C)O)cc2)CC1CCO (configuration not stated) | 3% | -2.1% | -0.3% | 17% | -0.1 | -40% | 4.0
COc1ccc(NC(=O)Nc2ccc3c(c2)C(=O)N([C@H](C)CO)C[C@H](C)[C@@H](CN(C)C(=O)Nc2ccc(C(F)(F)F)cc2)O3)cc1 | -12% | 0.5% | 0.4% | nt | nt | 6% | 12
CCOCCCn1c(=N)c(C(=O)NCc2ccc3c(c2)OCO3)cc2c(=O)n3cccc(C)c3nc21 | -4% | -0.7%[38.3 µM] | -22% | 3% | 3.2 | ? | -2.4
CCN1CCN(c2c(Cl)cccc2NC(=O)c2ccc(Br)o2)CC1 | -3% | -1.5% | -3.5% | 16% | 2.8 | ? | -5.5
Cc1c(Cl)cnc(NC(=O)COC(=O)C2CC3CCCC(C2)C3=O)c1Cl (configuration not stated) | 5% | -0.5% | -0.3% | nt | nt | ? | -2.9
